From PubChem BioAssay
MgrA-DNA mod: modulators of Staphylococcus aureus MgrA DNA binding. inhibition, %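 (about 10 µg/mL by stock and volumes)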. AID 602314. hit rate 0.13% among 84,000. fluorescence polarization;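 active = above 50% in either of two replicates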;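 note: 0% = protein plus DNA without compound and 100% = DNA alone without protein; higher means less MgrA bound to DNA so lower polarization; one replicate is shown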
S aureus helic: S. aureus DNA helicase inhibition. inhibition, %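 (tested at about 80 µM)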. hit rate 0.05% among 120,000. AID 485395. purified S. aureus helicase, fluorescence unwinding assay; about half of the hits fall short of the stated cut;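 active = both duplicates at 50% or more, or one of them with a favoured structure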;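 note: 0% = mean of negative control wells and 100% = mean of positive control wells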
* marks the source's active call; other numbers are inactive results; . = not tested or not shown; & = joins results of further samples.

Values run as follows: MgrA-DNA mod	S aureus helic
> CCOC(=O)Cc1nnc(C2CC(=O)N(c3ccccc3)C2)o1 (centres undefined)
    .	-27
> CCN1CCOC(CC(=O)Nc2cccc(OC)c2)C1=O (centres undefined)
    -1.9	10
> CCOc1ccc(-c2cc3[nH]c(=O)n(-c4ccccc4C(F)(F)F)c(=O)c3s2)cc1
    -2.4	5
> CC1=NN(C(=O)Cc2ccccc2)C(O)(c2ccccc2)C1 (centres undefined)
    3.9	6
> N#CNC1=NCN(CC2CCCO2)CN1 (centres undefined)
    0.5	-2
> Cc1cc(NC(=O)c2ccc(C(F)(F)F)cc2)no1
    -0.2	.
> CC(C)c1cc(C(=O)Nc2ccc3c(c2)OCCCO3)c2cnn(C(C)C)c2n1
    .	7
> CCCCN1CN=C(Nc2nc3ccccc3o2)NC1
    1.6	8
> COC(=O)CN(C)c1nnc(N)s1
    17	16
> COc1ccc(Oc2ncccc2NS(=O)(=O)c2ccc(OC)cc2)cc1
    3.0	.
> Cc1cc(C(N)=O)c(C)n1-c1ccc(Br)cc1
    0.2	11
> CCC(=O)Nc1ccc(C(=O)N2CCN(c3ccccc3)CC2)cc1
    1.9	0
> CCc1ccc(N2C(=O)N(CC(=O)N(CC)CC)c3ccccc3S2(=O)=O)cc1
    .	-4
> Cc1ccc(-n2ncc3c(NCc4cccs4)ncnc32)c(C)c1
    .	-4
> O=C(COc1ccccc1)Nc1ccc2c(c1)nc1n2CCN(Cc2ccccc2)C1
    .	23
> N#CCSc1nnc(Cc2cccs2)n1C1CCCCC1
    .	-4
> CC(C)CC(NCc1ccccc1O)C(=O)O (centres undefined)
    -2.6	.
> CN(C)CCCO[C@H]1[C@@H](C(O)CO)OC2OC(C)(C)O[C@H]21 (some centres undefined)
    0.5	.
> Cc1cc2ncn(S(C)(=O)=O)c2cc1C
    3.3	9
> Cn1c(Sc2cnccn2)nnc1-c1ccc(F)cc1
    .	-17
> CCOC(=O)N1CCC(NC(=O)Cn2cccc2C(=O)c2ccccc2)CC1
    .	-6
> CCC(C)C(NC(=O)c1cccc(Cl)c1)C(=O)OC (centres undefined)
    .	-14
> O=C(CN1C(=O)/C(=C\c2cccs2)SC1=S)N1CCN(c2ccccc2)CC1
    .	-15
> CCOc1ccc(-c2nc3ccc(-c4nc5ccc(N6CCN(C)CC6)cc5[nH]4)cc3[nH]2)cc1
    0.6	.
> O=C(O)CCN1C(=O)C2C3C=CC(C3)C2C1=O (centres undefined)
    .	-10
> Cc1ccc(-c2cccc(=O)o2)cc1
    .	6
> CCOC(=O)c1c(C)n(C)c2cc(Br)c(C)cc12
    .	17
> COc1cc(-c2cc(C(F)(F)F)n3ncc(C(=O)Nc4ccc(C(C)=O)cc4)c3n2)cc(OC)c1OC
    2.6	.
> Cc1cc(C(=O)NC(C)C(C)(C)C)cs1 (centres undefined)
    -2.5	3
> COc1ccc(Br)cc1/C=C1N=C(/C=C/c2ccccc2OC)OC\1=O
    -0.8	.
> CN1C(=O)C(O)(CC(=O)c2cccnc2)c2ccccc21 (centres undefined)
    .	-31
> Cc1ccc(OCCn2c(SCCO)nc3c(N)ncnc32)cc1
    .	2
> CN1C(=O)/C(=C2\SC(=S)N(C(CC(=O)O)C(=O)O)C2=O)c2ccccc21 (centres undefined)
    1.5	13
> Cc1cc2oc(=O)cc(CSc3nnc(-c4ccco4)n3CC(C)C)c2cc1Cl
    .	-3
> CCOC(=O)c1c(NC(=S)NCc2cc(C)n(C)n2)sc2c1CCCC2
    1.2	2
> c1ccc2[nH]c(CN3CCN(c4ncnc5sc6c(c45)CCCC6)CC3)nc2c1
    0.3	.
> CCCC(Nc1cccc(Br)c1)N1C(=O)CCC1=O (centres undefined)
    -0.7	.
> CCNc1c(NC(=O)Cc2ccccc2)c(=O)oc2ccccc12
    .	-28
> Cc1cccc(NC(=O)C2CCC2)c1C(=O)O
    -0.9	.
> O=C1NCCN/C1=C\C(=O)c1ccccc1
    -6.2	2
> O=C1c2ccccc2C(=O)n2ccnc21
    .	-10
> O=C(NCCc1ccccc1)C(F)(F)C(F)F
    -0.6	7
> CC(C(=O)O)N1C(=O)/C(=C\c2ccc(Br)cc2)SC1=S (centres undefined)
    .	23
> CCC(C)n1c(=S)[nH]c2ccccc2c1=O (centres undefined)
    .	-5
> Cc1nc2nc(-c3ccc(Cl)cc3)[nH]n2c(=O)c1C
    -1.5	-5
> CCOC(=O)c1cc2c(=O)[nH]c(C(F)(F)F)nc2o1
    .	-7
> Cc1ccc(C(=O)Oc2ccc(C3Oc4ccccc4C4CC(c5ccc(Cl)cc5)=NN43)cc2)cc1 (centres undefined)
    -0.3	.
> COc1cccc(OC)c1OCCNCc1ccco1
    .	-21
> Cc1cc(N2CCCC2)n2nc(C)c(-c3ccccc3)c2n1
    .	5
> On1c(-c2ccc(Cl)cc2Cl)nc2ncccc21
    0.7	.
> Fc1ccc(CN2CCC(N3CCc4ccccc4C3)CC2)cc1
    .	4
> Cc1ccc(N2C(=O)CC(=O)N(c3ccc(C)cc3C)C2=O)c(C)c1
    -2.6	12
> CC1CC(=O)c2cnc(N3CCc4ccccc43)nc2C1 (centres undefined)
    0.1	6
> Clc1cccc2c(N3CCCCCC3)cnnc12
    .	-17
> C[N+]1(CC2COC(C3CC=CCC3)O2)CCCC1 (centres undefined)
    -2.0	6
> O=C1N=C(c2ccccc2)S/C1=C\c1ccc2c(c1)OCO2
    .	15
> CN(C)C1CCCCC1NS(=O)(=O)c1ccc(Cl)cc1 (centres undefined)
    .	-7
> CCc1ccc(-n2c(=O)c3ccccc3n(CC(=O)C(C)(C)C)c2=O)cc1
    -1.0	2
> CC(C)C(=O)N=C1NC(=O)CS1
    .	-2
> COc1ccc(-c2nc(CS(=O)CC(=O)NC3CCCC3)c(C)o2)cc1 (centres undefined)
    .	0

More records follow.
Values run as follows: MgrA-DNA mod	S aureus helic
> NC(=S)NCCC[C@H](N)C(=O)O
    -1.8	.
> O=c1c(N2CCN(S(=O)(=O)c3ccc(F)cc3)CC2)coc2ccccc12
    1.8	.
> CC12CN3CC(C)(CN(C1)C3C1C(=O)Nc3ccccc31)C2 (centres undefined)
    -0.9	5
> O=C(Nc1cccc(O)c1)c1cccc(S(=O)(=O)Nc2cccc(O)c2)c1
    .	-8
> CC(Sc1nnc2c(n1)[nH]c1ccccc12)C(=O)NC1CC1 (centres undefined)
    0.8	0
> O=C(COC(=O)c1cc2ccccc2oc1=O)c1ccc(Br)cc1
    .	-21
> CC1(C)CC(=O)C2=C(C1)Nc1ccc3ccccc3c1C2c1ccco1 (centres undefined)
    4.5	14
> CNC(=O)Cc1ccc(NC(=O)N2CCCCc3ccccc32)cc1
    .	9
> O=C(NCc1ccco1)c1c(NC(=O)C2COc3ccccc3O2)sc2c1CCC2 (centres undefined)
    -2.8	-1
> CCCN(Cc1cccs1)C(=O)Nc1ccc(Cl)cc1
    .	18
> CC(NC(=O)Nc1cccc(C(F)(F)F)c1)c1nc2ccccc2[nH]1 (centres undefined)
    .	-6
> CC(C(=O)Nc1ccc(Br)cc1)N1CCN(c2ccccc2)CC1 (centres undefined)
    .	-1
> COC(=O)c1ccc(NC(C)C)c([N+](=O)[O-])c1
    -2.1	.
> CCOC(=O)c1sc(SCC)c2c1CC(C)(C)CC2=O
    -0.2	.
> CC(C)(C)N/N=C/c1cccc(OC(F)F)c1
    .	3
> Cc1noc(C)c1CSc1nc2ccccc2c(=O)n1Cc1ccccc1Cl
    .	17
> CN(C)S(=O)(=O)c1ccc(C(=O)NC2CCCc3ccccc32)cc1 (centres undefined)
    -1.4	1
> O=C1/C(=C/c2ccccc2)COc2ccccc21
    -1.7	.
> OCCNc1nc2nonc2nc1NCCO
    0.8	4
> CC(=O)Nc1no[n+]([O-])c1C(N)=O
    .	-30
> O=C(O)C1C2C=CC(C2)C1C(=O)N1CCN(C/C=C/c2ccccc2)CC1 (centres undefined)
    .	6
> O=C(CCc1nnc2ccc(NCc3ccccc3)nn12)NC1CCCC1
    .	9
> CCOC(=O)C(C#N)c1nc2ccccc2nc1N(CC)CC (centres undefined)
    .	8
> CCN1CCCC1CNC(C)C(=O)Nc1ccc(Oc2ccccc2)cc1 (centres undefined)
    .	1
> Cn1cnnc1SC1CCCCC1NS(=O)(=O)c1ccc(Cl)cc1 (centres undefined)
    -0.9	-2
> Cc1ccccc1S(=O)(=O)Cc1ccc(C(=O)N2CCN(Cc3ccccc3)CC2)o1
    .	9
> CCn1c(SCC(=O)/C(C#N)=C2\Sc3ccccc3N2C)nc2ccccc21
    .	5
> CCCNC(=O)OCC12CC3CC(CC(C3)C1)C2
    .	5
> c1csc(-c2nn[nH]n2)c1
    .	9
> O=C(CCCN1C(=O)CCC1=O)Nc1cccc2c1CCCC2
    1.9	10
> CCCCn1c(=O)c2ccccc2n2c(=S)sc(-c3ccccc3)c12
    1.4	4
> CCCn1c2ccccc2c2cnn(CC(=O)NCCN(C)C3CCCCC3)c(=O)c21
    .	-30
> Cc1cccc(CCNC(=O)C2CCN(S(=O)(=O)c3cccc4cccnc34)CC2)c1
    -7.4	12
> N#Cc1c(N)nc(SCC(=O)c2ccc(F)cc2)c(C#N)c1-c1ccc(O)cc1
    -0.7	.
> OCCN(CCO)Cc1ccccc1
    0.4	6
> Cc1cccn2c(=O)c3cc(C(=O)NC4CCSC4=O)sc3nc12 (centres undefined)
    0.2	17
> Cc1cc2cc3c(C)cc(=O)oc3c(C)c2o1
    -1.5&-0.1	.
> O=C(NC1CCCC1)c1ccccc1OCc1ccccc1
    -0.7	-12
> O=C(Nc1nccs1)c1cc2c(=O)n3ccccc3nc2s1
    .	-22
> CC(NCc1cc2ccccc2cc1O)C(=O)O (centres undefined)
    2.9	.
> CN1CCC(N(C)C(=O)c2nn(Cc3ccccc3)c(=O)c3ccccc23)CC1
    .	2
> CCCCNC(=O)Cn1c(=O)n(C)c2ccccc21
    .	25
> COC(=O)c1sccc1NC(=S)Nc1ccccc1Cl
    0.5	.
> Cc1cc(C(=O)Nc2cc(C)n(Cc3ccc(Cl)cc3)n2)on1
    .	-10
> O=C(C1CCCCN1S(=O)(=O)c1ccccc1)N1CCCCC1 (centres undefined)
    1.0	-18
> O=C(Nc1ccc2c(c1)C(=O)OC2)c1ccccc1
    -0.4	.
> CCn1c(Cc2nnc(SCC(=O)c3ccc(F)cc3)n2CC)nnc1SCC(=O)c1ccc(F)cc1
    .	10
> O=C(O)CCC(=O)N1N=C(c2cccs2)CC1c1ccccc1O (centres undefined)
    -1.1	18
> COc1cc(NC(=O)CNCc2ccc(Cl)cc2)ccc1-n1cnnn1
    -1.8	-1
> CCS(=O)(=O)c1nc2ccccc2n1Cc1ccccn1
    -0.2	6
> CCn1cc(C(=O)NCC23CC4CC(CC(C4)C2)C3)c(=O)c2ccc(C)nc21
    .	-7
> OCC1=CC[N+]2(Cc3ccccc3)CCC(O)C12 (centres undefined)
    -1.1	5
> CCSc1nnc(Cn2c(=O)sc3ccccc32)n1C
    0.5	16
> CCCNC(=O)C1CN(CC(=O)NC2CCCCC2)c2ccccc2O1 (centres undefined)
    .	7
> Cc1cccc(CCNC(=O)C2CCN(S(=O)(=O)c3ccc(-n4cnnn4)cc3)CC2)c1
    .	-26
> COc1ccc2nc(Cl)c3nnnn3c2c1
    .	15
> Cc1onc(-c2ccc(Cl)cc2)c1-c1ccnc(SCC(=O)c2ccccc2)n1
    .	-10
> Cc1ccc2[nH]c3c(c2c1)CCc1cn[nH]c1-3
    .	21
> CNC(=O)c1ccsc1NC(=O)/C=C/c1ccccc1
    .	8
> Cc1ccccc1-n1cnnc1SCc1nnc(-c2ccccc2Br)o1
    .	8

As entered above:
Entry for `Cc1cccc(CCNC(=O)C2CCN(S(=O)(=O)c3ccc(-n4cnnn4)cc3)CC2)c1` under S aureus helic: -26
Entry for `Cc1ccc2[nH]c3c(c2c1)CCc1cn[nH]c1-3` under S aureus helic: 21

Continued:
Values run as follows: MgrA-DNA mod	S aureus helic
> O=C(O)CC1c2ccccc2Oc2ccccc21
    0.6	-2
> O=C(/C=C/c1ccc(S(=O)(=O)N2CCOCC2)cc1)Nc1nccs1
    .	15
> O=C(NCc1ccco1)c1csc(C2COc3ccccc3O2)n1 (centres undefined)
    -2.3	.
> COc1ccccc1-c1nnc(SCC(=O)OC(C)C)n1-c1ccccc1
    3.2	1
> O=C(Nc1c2c(nn1-c1ccccc1)CSC2)c1ccc(Cl)cc1
    .	10
> CCN(CC)Cc1cccc2cccnc12
    1.3	-21
> Cc1cc(C)nc(NS(=O)(=O)c2ccc(NC(=O)c3ccccc3[N+](=O)[O-])cc2)n1
    0.1	.
> CS(=O)c1nc(-c2ccccc2)cc(C(F)(F)F)n1 (centres undefined)
    -0.1	7
> O=C(CN1C=NS(=O)(=O)c2ccccc21)NCCc1ccccc1
    .	0
> O=C(O)CSc1c2c(nc3cc(C(=O)N4CCCC4)ccc13)CCCC2
    .	12
> c1ccc(Nc2nncs2)cc1
    .	6
> Cc1cc(=O)oc2cc(OCc3cccc(F)c3)ccc12
    -0.2	7
> O=C(O)c1ccc(CSCc2ccccc2)o1
    -0.6	4
> CCN(c1cccc(C)c1)C1C(=O)c2ccccc2N1C(C)=O (centres undefined)
    .	5
> Cc1ccc2c(c1)CCCN2C(=O)Cc1c(C)noc1C
    .	-3

Fetched one by one from the entries so far:
Values run as follows: MgrA-DNA mod	S aureus helic
> O=C(CN1C=NS(=O)(=O)c2ccccc21)NCCc1ccccc1
    .	0
> CCN(c1cccc(C)c1)C1C(=O)c2ccccc2N1C(C)=O (centres undefined)
    .	5
> O=C(Nc1c2c(nn1-c1ccccc1)CSC2)c1ccc(Cl)cc1
    .	10
> O=C(O)CSc1c2c(nc3cc(C(=O)N4CCCC4)ccc13)CCCC2
    .	12
> O=C(NCc1ccco1)c1csc(C2COc3ccccc3O2)n1 (centres undefined)
    -2.3	.
> CCN(CC)Cc1cccc2cccnc12
    1.3	-21

A portion of the library; count on the stated rates, not on these rows.
